eIF4H FP inh = inhibitors of RNA binding by human eIF4H; Q15056; eIF4H fluorescence polarization binding assay; inhibition, % at 35 µM; hit rate 0.94% among 290,000; AID 2012;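 active = 50% or more with normal probe brightness, or confirmed in later tests; about a fifth of its hits are not listed in these tables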;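 also: calls also rest on retests at 20 µM and on dose response follow-up; 0% = protein and probe with vehicle and 100% = probe without protein; strong numbers were not always called active; many hits fall short of the cut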
Yeast UUG start = modulators of start codon recognition fidelity in yeast. S. cerevisiae UUG-firefly luciferase reporter, luminescence/redox ratio. activity score, % at 18.7 µM. hit rate 0.13% among 350,000. AID 602363;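 active = replicate mean at a twofold rise or more, about +100% in these data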;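 also: firefly luciferase made from a UUG start codon reports start codon fidelity; reporter light over untreated wells divided by growth signal over untreated wells; some hits fall short of that in this replicate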
CSC inhib = cancer stem cell inhibition; hit rate 1.1% among 300,000; cancer stem cell-like cells viability, luminescence; AID 2717; inhibition, % at 7.5 µM;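 active = mean at 75% or more and at least half the replicates too; tested in HMLE shEcad cells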;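 also: 0% = median of negative and 100% = median of positive control wells; the first replicate is given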
Rce1 inh = yeast Ras-converting enzyme inhibition | Q03530 | yeast membranes, quenched prenylated peptide cleavage fluorescence | calls only | hit rate 0.27% among 290,000 | AID 2563;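 active = fall in fluorescence gain of 50% or more versus controls, with final raw signal at or below 3038400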;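 also: plate controls were neutral control wells for no effect and wells lacking membranes for full effect; tested at 10 µM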
Target sequence (Q03530 whole entry, looked up): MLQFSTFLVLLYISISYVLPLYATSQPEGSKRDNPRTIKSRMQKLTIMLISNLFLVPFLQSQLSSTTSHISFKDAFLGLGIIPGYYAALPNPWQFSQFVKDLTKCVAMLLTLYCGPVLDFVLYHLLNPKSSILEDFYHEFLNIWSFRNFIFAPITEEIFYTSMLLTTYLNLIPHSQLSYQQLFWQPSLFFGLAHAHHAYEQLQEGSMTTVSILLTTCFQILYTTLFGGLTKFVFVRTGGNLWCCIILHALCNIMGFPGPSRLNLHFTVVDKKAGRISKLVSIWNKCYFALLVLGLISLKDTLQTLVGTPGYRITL
MT1-MMP act inh = blocks activation of human MT1-MMP; HT1080 RFP-PRO-GFP cells, GFP/RFP ratio fluorescence, overnight; percent of plate control window, DMSO zero; AID 651647; P50281; GFP/RFP ratio change, % at 20 µM; hit rate 0.061% among 360,000;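 active = GFP/RFP ratio change of at least 30% with cell ATP level not reduced by more than half and red fluorescence within 50% of control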; also: strong numbers were not always called active
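Test system: HT1080 RFP-PRO-GFP cells; Benchmarks: DMSO and RFP-L50D-GFP cell wells; Timing: cells overnight before dosing, compound overnight, 37 °C, 5% CO2; Compound: one 20 µM compound dose with 1% DMSO; Read-out: GFP/RFP fluorescence ratio.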
PABP FP inh = blocks human PABP binding to poly(A) RNA; hit rate 1% among 290,000; inhibition, % at 35 µM; fluorescence polarization; AID 2014;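 active = 50% or more with normal probe brightness, or confirmed in later tests; about a fifth of its hits are not listed in these tables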;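 also: calls also rest on retests at 20 µM and on dose response follow-up; controls were probe without protein and protein plus probe with vehicle; some compounds called inactive have numbers as strong as hits; many hits fall short of the cut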
Env fusion inh = HIV envelope-mediated fusion inhibition; HeLa-JRFL Env/CEM21 cell fusion, luciferase; inhibition, % at 12.3 µM; hit rate 1.1% among 360,000; AID 651610;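 active = mean replicate inhibition score of at least 50 and every replicate individually at or above 50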;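 also: 0% = plate neutral controls and 100% = maraviroc near 300 nM; one replicate is shown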
MT1-MMP act inh RFP = second read-out of MT1-MMP act inh, no call of its own (marks repeat the call); RFP signal change, %; measured here: RFP expression control read;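 0 = vehicle wells; hits needed this value within 50% of zero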
An asterisk follows results filed as active; i = inactive; . = not tested or not shown; & = joins results of further samples.

SMILES | eIF4H FP inh | Yeast UUG start | CSC inhib | Rce1 inh | MT1-MMP act inh | MT1-MMP act inh RFP | PABP FP inh | Env fusion inh
COc1ccc(NC(=O)COC(=O)c2cc(S(=O)(=O)N3CCCC3)ccc2O)cc1 | . | . | -9 | . | -1 | -3 | . | -9
Cc1sc2ncnc(N3CCN(Cc4ccccc4)CC3)c2c1-c1ccccc1 | 1 | -3 | 26 | i | -3 | -6 | 4 | 11
Nc1nonc1-n1nnc(C(=O)N/N=C/c2ccccc2F)c1-c1cccs1 | -6 | -9 | -11 | i | -6 | 0 | -4 | -1
Cc1c(NC(=O)c2ccc(Cl)nc2)cccc1-c1nc2cccnc2s1 | -1 | . | -8 | i | -9 | -16 | 0 | 34
Cc1ccc(Cn2c(Sc3nnc(C)s3)nc3c2c(=O)[nH]c(=O)n3C)cc1 | 4 | -9 | . | i | 3 | 7 | -2 | -9
COc1ccc(C(C)(O)c2nc(-c3ccc(F)cc3OC)cs2)cc1 (stereo not drawn) | . | -21 | . | . | -7 | -12 | . | 20
Cc1ccc(/C=N/NC(=O)CCSc2ccccc2)cc1 | 0 | -7 | 18 | i | 3 | 1 | -4 | 5
O=C(O)c1ccc(N/N=C/c2ccnc3ccccc23)cc1 | -4 | 16 | . | i | -4 | -2 | 9 | -31
CC(C)n1cc(C(=O)N2CCCC(Nc3ccc(F)c(F)c3)C2)cn1 (stereo not drawn) | 0 | 2 | -21 | i | -2 | 1 | 3 | -4
CCOc1ccc(N(CC(=O)NCc2ccc(OC)cc2)S(=O)(=O)c2c(C)[nH]c(=O)[nH]c2=O)cc1 | . | 0 | 8 | i | 12 | 39 | . | -1
O=c1cc2n(c(=O)[nH]1)CCC1=C2CCCC1 | 27 | -15 | -6 | i | 2 | 4 | 34 | -52
CCOC(=O)C1=C(C)NC(C)=C(C(=O)OCC)C1C1=COCCO1 | -13 | -14 | -8 | i | -7 | 3 | -1 | .
Cn1nc(C(=O)Nc2nc3ccc(S(C)(=O)=O)cc3s2)ccc1=O | -1 | -8 | 11 | i | -9 | -2 | -13 | .
CC(C)c1ccccc1NC(=O)Nc1ccc(F)cc1F | 10 | 6 | -9 | i | -1 | -3 | 0 | 4
N#CC1(NC(=O)CSc2nnc(COc3ccccc3F)n2N)CCCCC1 | . | . | -12 | i | -5 | -1 | . | 5
CSc1ccc(C(=O)C2CCCN(Cc3cccn3-c3cccnc3)C2)cc1 (stereo not drawn) | 8 | -6 | . | i | -1 | -8 | 4 | 1
CCCCNC(=O)C1(C)CCC(=O)N1CC(F)(F)F (stereo not drawn) | . | -12 | . | . | 3 | 3 | . | -39
CC(C)(C)N(Cc1ccccc1)C(=O)CSc1ncn[nH]1 | -14 | -15 | 3 | i | -1 | 0 | 0 | -9
N#Cc1c(N)n(CCOC(=O)c2ccc(Cl)cc2)c2nc3ccccc3nc12 | -10 | -4 | . | i | -6 | 0 | -4 | .
CC1(C)Cc2c(sc3nnn(Cc4ccc(Cl)cc4)c(=O)c23)CO1 | 1 | -14 | 3 | . | -1 | 0 | 22 | 13
Cc1cc(NC(=O)/C=C/c2ccccc2)no1 | -8 | . | 13 | i | 4 | 4 | -5 | .
O=c1c2ccccc2nc(COc2ccccc2)n1/N=C/c1cc([N+](=O)[O-])ccc1O | 15 | 7 | 75* | i | -1 | -7 | 9 | 14
O=S(=O)(c1ccc(-c2ccon2)s1)N1CCN(CCN2CCOCC2)CC1 | 1 | -7 | -2 | i | 1 | 4 | 1 | -14
O=C(/C=C/c1ccco1)Nc1ccc(CN2CCOCC2)cc1 | 5 | -29 | -11 | i | 1 | 3 | -8 | -2
CC(C)(C)C(=O)Nc1nc(-c2ccc3c(c2)OCO3)cs1 | -5 | -15 | 10 | i | -9 | -13 | 6 | -102

(continued)
SMILES | eIF4H FP inh | Yeast UUG start | CSC inhib | Rce1 inh | MT1-MMP act inh | MT1-MMP act inh RFP | PABP FP inh | Env fusion inh
COc1ccc(-n2c(SCC(=O)Nc3sc4c(c3C#N)CCCC4)nnc2-c2ccc(O)cc2)cc1 | -12 | -10 | 15 | i | 0 | 5 | 8 | -80
CCOc1ccc(OCC)c(NS(=O)(=O)c2cn(C)cn2)c1 | 0 | -17 | 1 | i | -4 | 3 | -8 | 8
Cc1nnc(SCC(=O)Nc2nc3c(s2)CC(C)CC3)s1 (stereo not drawn) | -7 | -3 | -2 | i | 8 | -20 | -3 | .
C[C@H](CO)N1C[C@H](C)[C@@H](CN(C)C(=O)Nc2ccccc2F)OCc2cnnn2CCCC1=O | . | -12&-2&12 | . | . | 2 | 5 | . | 4
COc1ccc(OCC(=O)NCCCn2ccnc2)cc1 | 4 | . | -4 | i | 0 | 7 | -9 | -15
Cc1noc(C)c1COC(=O)CCOc1ccccc1 | 1 | 7 | 1 | i | 1 | -3 | -3 | -1
Cc1ccc(-n2[nH]c(=O)c3cccnc32)cc1 | -6 | -24 | -3 | i | 0 | 4 | 7 | -79
COC(=O)c1cn(CC(=O)N2CCCCCC2)c2ccccc12 | -9 | 1 | -7 | i | 2 | 8 | 7 | -23
O=C(NCCCN1CCOCC1)c1ccc2c(c1)N(Cc1ccc(F)cc1)CCS2 | -7 | -18 | 26 | i | -2 | 3 | -3 | 16
O=C(NNC(=O)c1ccc(-n2cncn2)c([N+](=O)[O-])c1)c1ccc(Cl)cc1 | . | -15 | 14 | . | 1 | 1 | . | 0
COc1ccc(NC(=O)CN(C)C(=O)c2ccc(OCc3ccccc3)c(OC)c2)cc1 | . | 19 | -6 | . | -1 | -1 | . | 21
Cc1ccc(N2C(=O)c3ccccc3C2Nc2ccccc2F)nc1 (stereo not drawn) | -8 | 0 | 39 | i | 1 | -4 | 4 | -26
Cc1cccc(C)c1NC(=S)NCc1ccncc1 | -8 | . | -9 | i | 0 | -1 | -7 | 4
COc1ccc(C(=O)N2CCN(c3ccc(NC(=O)Cc4ccccc4)cc3)CC2)cc1 | -9 | 2 | -14 | i | -3 | -6 | -10 | -11
Cc1ccc(CNc2ccccc2C(=O)O)s1 | -1 | -11 | 5 | i | 2 | 2 | -2 | -3
C[C@H](CO)NC(=O)c1nc[nH]c1C(=O)N[C@H](C)c1ccccc1 | . | 15 | . | . | -1 | 1 | . | 13
O=C(O)c1ccc2c(c1)C1C=CCC1C(c1cc3c(cc1Br)OCO3)N2 (stereo not drawn) | 2 | . | 31 | i | -3 | -4 | 8 | -4
CN(CCCNC(=O)CCCOc1cc(=O)n(C)c2ccccc12)Cc1ccccc1 | 1 | -7 | -2 | i | 8 | 8 | 8 | 4
COC(=O)[C@@H]1CCCN1C(=O)CCc1nnc(CCc2c[nH]c3ccccc23)o1 | -8 | -9 | -13 | i | 3 | 5 | -5 | -4
CC(C)Cc1nc(Nc2ccc(S(=O)(=O)N3CCCC3)cc2)c2nnn(Cc3ccccc3)c2n1 | -19 | . | 11 | i | -21 | -21 | -1 | -134
Cc1ccc(CNC(=O)c2cc(COc3c(F)cccc3F)on2)s1 | -1 | 2 | . | i | 2 | -1 | -7 | -2
Cc1ccc(S(=O)(=O)N2CCC(C(=O)N[C@@H](C)C(=O)NCCc3ccccc3)CC2)cc1 | -17 | 2 | -4 | . | 3 | 4 | -5 | -22
Cc1cc(C)cc(OCC(=O)Nc2ccc(N3CCN(S(C)(=O)=O)CC3)cc2)c1 | -10 | -28 | 5 | i | 6 | 0 | -2 | -42
COc1ccc(C2CC(=O)c3ccccc3O2)cc1 (stereo not drawn) | 6 | 0 | 2 | i | -1 | -3 | 22 | -60
O=c1[nH]ncc2c3ccccc3n(Cc3ccccc3F)c12 | 1 | -12 | 2 | i | -1 | 1 | -11 | .

The listing continues:
SMILES | eIF4H FP inh | Yeast UUG start | CSC inhib | Rce1 inh | MT1-MMP act inh | MT1-MMP act inh RFP | PABP FP inh | Env fusion inh
c1ccc(-c2nc(-c3ccco3)cs2)nc1 | -3 | -36 | 8 | i | -16 | 5 | 0 | -79
CCOc1ccc(NS(=O)(=O)c2ccc(OC)c(C)c2)cc1 | 8 | -7 | -6 | i | 2 | -1 | 0 | -13
O=C(CSc1nnc(NC(=O)C2CC(=O)N(c3ccc(F)cc3)C2)s1)NCc1ccco1 (stereo not drawn) | 23 | -4 | -15 | i | -5 | -4 | 8 | .
CN(C)S(=O)(=O)c1cccc(COC(=O)c2cc([N+](=O)[O-])ccc2N2CCOCC2)c1 | . | . | 14 | i | -2 | -14 | . | 18
CCn1nccc1NC(=O)c1ccc2sc([C@@H]3O[C@H](CO)[C@H](O)[C@H](O)[C@H]3O)nc2c1 | . | -9 | . | . | 4 | 5 | . | -7
Cc1cc(C)c(C)c(S(=O)(=O)N2CCSCC2)c1C | 7 | 7 | 13 | i | -1 | 3 | 10 | -2
Cc1nn(CC(=O)OCC(=O)c2ccccc2)c(C)c1[N+](=O)[O-] | . | -19 | -4 | . | . | . | . | -11
O=C(NNC(=O)C1C2CCC(C2)C1C(=O)O)c1ccc(Cl)cc1 (stereo not drawn) | -1 | . | -15 | i | -3 | -3 | 3 | -17
CC(CCc1ccccc1)NCC(O)COc1ccccc1 (stereo not drawn) | -12 | . | -1 | i | 3 | 5 | 2 | 35
Cc1cccc(OC(=O)c2ccc3c(=O)n4c(nc3c2)CCC4)c1 | . | -10 | . | . | 11 | 6 | . | 36
Cc1ccccc1-c1nc(CS(=O)(=O)CC(=O)NCc2ccccc2)c(C)o1 | -4 | -6 | -9 | i | -1 | 2 | -21 | 9
O=C(C[C@@H]1C[C@@H]2c3cc(NS(=O)(=O)c4ccc(F)cc4)ccc3O[C@@H]2[C@H](CO)O1)N1CCc2ccccc2C1 | . | 2 | . | . | 5 | 1 | . | -57
Cc1nn(CC(O)c2ccccc2)c(C)c1Br (stereo not drawn) | -1 | -6 | -4 | i | -6 | -4 | 4 | -63
CCOc1ccccc1C(=O)Nc1ccc2c(c1)C(=O)NC2=O | 4 | -16 | -11 | i | -4 | 3 | -6 | -6
CCOc1ccccc1N(CC(=O)N1CCCCCC1)S(C)(=O)=O | -5 | 1 | -10 | . | 0 | 5 | 0 | -68
O=C(NCCNC(=O)c1cc(OCC(F)(F)F)ccc1OCC(F)(F)F)Nc1ccccc1 | -10 | 5 | 0 | i | 3 | -1 | -9 | -12
COCCCN1C(=O)c2[nH]nc(-c3ccccc3O)c2C1c1cccc(Cl)c1 (stereo not drawn) | -9 | . | 53 | i | -15 | -20 | -6 | 29
CCOc1ccc(CN2CCNC(=O)C2CC(=O)O)cc1 (stereo not drawn) | -4 | . | -4 | i | -1 | 3 | -8 | -7
CN1C(=O)CC(N2CCC(C(N)=O)CC2)C1=O (stereo not drawn) | 11 | -13 | . | i | -4 | -4 | -1 | .
CCNC(=S)N(Cc1cc2cc(C)cc(C)c2[nH]c1=O)C1CCCC1 | -8 | . | -14 | i | -4 | -8 | -3 | .
O=S(=O)(c1ccc(F)c(F)c1)N1CCN(CCc2ccccc2)CC1 | -6 | -11 | -3 | i | 1 | -3 | -8 | 14
CCOc1cc(-c2sc(Nc3ccccc3)n[n+]2C)ccc1OC | -2 | -9 | -12 | i | 1 | -1 | -2 | 10
Cc1c(NC(=O)N(C)C)c(=O)n(-c2ccccc2)n1C | -5 | -44 | -9 | i | 1 | -1 | -2 | .

Source: PubChem BioAssay (several laboratories)

Only part of the results is shown. The share of hits here may be higher or lower than overall.
